E coli growth = E. coli growth inhibition, primary screen, OD600; OD600 absorbance (concentration not given with the values); actives 0.21% (n = 330,000); Escherichia coli growth, 23 h; stronger effect = lower value;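 active = OD600 absorbance below the run mean of sample wells minus 3.6 SD, in any replicate, cut at about 0.56 in these data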;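 also: stock transfer was 300 nL into about 60 µL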
An asterisk follows results filed as active; & = joins results of further samples. The list is partial; count on the stated rates, not on these rows.

SMILES | E coli growth
CC(NC(=O)c1nc[nH]c1C(=O)NCCCCCNC(=O)OC(C)(C)C)C(=O)OCc1ccccc1 (stereo not given) | 0.69
CC(=O)Nc1ccc(SCC(Cc2ccccc2)N2CCC(C)CCC2=O)cc1 (stereo not given) | 0.68
CC(NC(=O)c1nc[nH]c1C(=O)NCC(=O)OCc1ccccc1)C(=O)OC(C)(C)C (stereo not given) | 0.69
FC(F)(F)c1ccc(CN2CC3C(c4ccc(Cl)nc4)C4(c5ccccc5)CC3(C4)C2c2ccccc2)cc1 (stereo not given) | 0.72
CCC(C)C(N)c1cn(C(Cc2ccc(O)cc2)C(=O)N2CCNCC2)nn1 (stereo not given) | 0.66
CC(C=CC1=C(C)CCCC1(C)C)=CC=CC(C)=CC(=O)O | 0.66&0.67
CC(C(N)C(=O)NC(C(=O)O)C1OC(n2ccc(=O)[nH]c2=O)C(O)C1O)C(O)c1ccc(O)cn1 (stereo not given) | 0.68
CCCSc1ccc(C2C3C(=O)N(CC)C(=O)C3[C@]3(C(=O)OC)CCCCN23)cc1OC (stereo not given in full) | 0.67&0.69
CCC(C)C(NC(=O)OC(C)(C)C)c1cn(C(CCC(=O)OC(C)(C)C)C(=O)N2CCN(C(=O)OC(C)(C)C)CC2)nn1 (stereo not given) | 0.69
CCc1ccc(C2CC=C(C(=O)O)C(c3ccccc3F)N2S(=O)(=O)c2ccc(C)cc2)cc1 (stereo not given) | 0.64
O=C1OCCN1C(=O)C1C(c2ccc([N+](=O)[O-])cc2)C(c2cccc(Cl)c2)=NN1c1ccccc1 (stereo not given) | 0.7
Cc1noc(C)c1NC(=O)Nc1ccc2c(c1)C(=O)N(C(C)CO)CC(C)C(CN(C)C(=O)Nc1ccc3c(c1)OCO3)O2 (stereo not given) | 0.65
CC1CN(C(C)CO)C(=O)c2cccc(NC(=O)C3CCCCC3)c2OC1CN(C)Cc1ccncc1 (stereo not given) | 0.69
CC(C)(C)OC(=O)NC(COCc1ccccc1)C(=O)NC(CO)C(O)C1CC1C(=O)NC1CCCCC1 (stereo not given) | 0.69
CC(C)CC(NC(=O)c1[nH]cnc1C(=O)Nc1ccccc1)C(=O)OC(C)(C)C (stereo not given) | 0.67
COC(=O)C1C[C@@]2(O)C(O)C(O)C(O)CC2N1CC1CCCCC1 (stereo not given in full) | 0.69
CC(CN1C(=O)C(=O)NCC1C)NC(=O)CC12CC3CC(CC(C3)C1)C2 (stereo not given) | 0.73
C#CCOCCOCCOCCNc1nc(N2CCN(C(=O)Cn3cc(CCCN=C(N)N)nn3)CC2)nc(N2CCN(C(=O)C(C(C)CC)n3cc(CCCCN)nn3)CC2)n1 (stereo not given) | 0.71
COc1ccc(NC(=O)Nc2cccc3c2OC(CN(C)C(=O)NC(C)C)C(C)CN(C(C)CO)C3=O)cc1 (stereo not given) | 0.68
CC(N)=C(C#N)C(=O)COC(=O)c1cc(-c2cccc3ccccc23)nc2ccccc12 | 0.68
C=CCC(CC(=O)NC(CO)Cc1ccccc1)C(=O)NC(C)COC(=O)C(CC=C)CC(=O)OC(C)(C)C (stereo not given) | 0.7&0.7
Cc1ccc(C2CC=C(C(=O)O)CN2S(=O)(=O)c2ccccc2C)cc1 (stereo not given) | 0.68
CC1C=C[C@](Cc2ccccc2)(C(=O)O)N1C(=O)c1ccccc1 (stereo not given in full) | 0.72
Cc1ccc(S(=O)(=O)Nc2ccc3c(c2)CC(=O)N(C(C)CO)CC(C)C(CN(C)Cc2ccc(-c4ccccc4)cc2)O3)cc1 (stereo not given) | 0.72
COc1ccc(NC=CC(=O)c2ccc(Oc3ncccn3)cc2)cc1 | 0.69
Cc1noc(C)c1NC(=O)N(C)CC1Oc2ccc(NC(=O)NC3CCCCC3)cc2C(=O)N(C(C)CO)CC1C (stereo not given) | 0.67
O=C1OCCN1C(=O)C1C(c2ccc(F)cc2)C(c2ccc(F)cc2)=NN1c1ccccc1 (stereo not given) | 0.71
COc1cc(F)c(C2=CC(=O)CC(c3ccc(F)cc3)C2)cc1F (stereo not given) | 0.71
O=S1(=O)CCOC2Cc3ccccc3C2N1Cc1ccccc1 (stereo not given) | 0.7
CC(NC(=O)c1nc[nH]c1C(=O)NC(C)C(=O)OC(C)(C)C)C(=O)OCc1ccccc1 (stereo not given) | 0.69
CC1C=C(C(=O)N2CCN(Cc3ccccc3)CC2)OC(OCc2ccc(CO)cc2)C1 (stereo not given) | 0.67
CC(C)C=C1CCCCC1N(C)C(=O)NC(C)C (stereo not given) | 0.7
O=C1NCCOC(=O)C(Cc2ccc(F)cc2)CCC=CCC1CC(=O)N(CCO)Cc1ccccc1 (stereo not given) | 0.71&0.69&0.69
CNC(CC(=O)O)C(=O)O (stereo not given) | 0.72
Cc1ccc(S(=O)(=O)NC(C(=O)N2CCC(C(=O)NCC(=O)O)CC2)C(C)C)cc1 (stereo not given) | 0.65
CC(=O)CC1c2ccccc2S(=O)(=O)N1C1CCCC1 (stereo not given) | 0.67
COC(=O)c1ccc(C=Cc2c(-c3ccc(OC)cc3)oc3ccc(N4CCOCC4)cc23)cc1 | 0.66
CCOC(=O)CN1C(=O)NC(c2cccc(C(F)(F)F)c2)C(C(=O)OC)=C1C (stereo not given) | 0.68
O=C(NCc1cccnc1)C(=Cc1ccc(-c2ccc(Br)cc2)o1)S(=O)(=O)c1ccccc1 | 0.7
N#Cc1ccc(C=CC(=O)c2ccco2)cc1 | 0.66
COc1ccc(C2CC(=O)C=C(c3ccc4c5c(cccc35)CC4)C2)cc1 (stereo not given) | 0.75
CCOC1OC(C(=O)O)=CC(C)C1CCCO (stereo not given) | 0.69&0.7
COc1ccc(C2CC(=O)C=C(c3cc(C)ccc3F)C2)cc1 (stereo not given) | 0.65
C[C@]12C(=O)N(c3ccc(Cl)cc3)C(=O)N1C1c3ccccc3OCC1C2c1ccccc1 (stereo not given in full) | 0.67
CCSc1ccc(C2C3C(=O)N(C)C(=O)C3[C@]3(C(=O)OC)CCCCN23)cc1OC (stereo not given in full) | 0.64&0.72
CN(C)C=C1N=C(c2cccs2)OC1=O | 0.62
O=C(O)C=CC(=O)Nc1ccc(S(=O)(=O)Nc2nccs2)cc1 | 0.71
CCC1=C2CCC3C(=O)N(c4ccccc4)C(=O)C3C2[C@@]2(C)C(=NCC3CC3)OC(=O)N2C1=O (stereo not given in full) | 0.66
CC(=O)O[C@]1(C(C)=O)CCC2C3C=C(C)C4=CC(=O)CCC4C3CC[C@@]21C (stereo not given in full) | 0.65
C[C@]12C=CC(=O)C=C1CCC1C2C(O)C[C@@]2(C)C1CC[C@]2(O)C(=O)CO (stereo not given in full) | 0.69

Later entries:
SMILES | E coli growth
NC(=O)CC(N)c1cn(C(CC(N)=O)C(=O)N2CCNCC2)nn1 (stereo not given) | 0.69
O=C(NC(Cc1ccccc1)C(=O)NC(Cc1ccccc1)C(=O)O)OCc1ccccc1 (stereo not given) | 0.7
Cc1nc2ccccn2c1C(O)=C1C(=O)C(=O)N(CCN(C)C)C1c1cccnc1 (stereo not given) | 0.7
CC1CN(C(C)CO)C(=O)c2cccc(NC(=O)Cc3ccccc3)c2OC1CN(C)Cc1ccc(C(=O)O)cc1 (stereo not given) | 0.71
OCC1OC(OCC2OC(OCC3OC(O[C@]4(CO)OC(CO)C(O)C4O)C(O)C(O)C3O)C(O)C(O)C2O)C(O)C(O)C1O (stereo not given in full) | 0.69
CC(C)(C)N1C(=O)C2C(c3ccc(Br)cc3)N3C(=O)N(c4cccc(Br)c4)C(=O)[C@@]3(Cc3ccccc3)C2C1=O (stereo not given in full) | 0.73
CCN(CC)c1ccc(C=CC(=O)C2C(=O)C=C(C)OC2=O)cc1 (stereo not given) | 0.71
C=C1CCN(C(Cc2ccccc2)C(=O)NCc2ccccc2)S(=O)(=O)c2ccccc21 (stereo not given) | 0.68
CCC1(CC)C(=O)C2=C3C(CC(C(=O)OC)=CC(C(=O)OC)C31)C1C(=O)N(CC(=O)OC)C(=O)C1C2C (stereo not given) | 0.68
C=CC1c2cccc(C)c2N(S(=O)(=O)c2ccc(C)cc2)C(c2ccccc2)C1(C#N)S(=O)(=O)c1ccccc1 (stereo not given) | 0.72
CC1CN(C(C)CO)C(=O)c2cc(NC(=O)c3ccncc3)ccc2OC1CN(C)C(=O)Nc1ccc(C(F)(F)F)cc1 (stereo not given) | 0.69
CC(C)(C)CN1C(N)=NCC1Cc1ccc(O)cc1 (stereo not given) | 0.7&0.66
C=CCN1c2ccccc2[C@]23CC(C(=O)OC)N(C(=O)c4cccs4)C2=NC(C(=O)OC)=C(C(=O)OC)C13 (stereo not given in full) | 0.72
CCOC1OC(C(=O)N2CCN(C)CC2)=CC(c2ccc(Br)cc2)C1CCCO (stereo not given) | 0.66
CCC(C)C(C(=O)N1CCN(C(=O)OC(C)(C)C)CC1)n1cc(C(CC(C)C)NC(=O)OC(C)(C)C)nn1 (stereo not given) | 0.7
COC(=O)C1CC1C(NC(=O)c1ccc[nH]1)c1ccccc1 (stereo not given) | 0.67
CC1OC(OC2C(O)C(OCCc3ccc(O)c(O)c3)OC(CO)C2OC(=O)C=Cc2ccc(O)c(O)c2)C(O)C(O)C1O (stereo not given) | 0.68
C#CCOCCOCCOCCNc1nc(N2CCN(C(=O)C(CCCCN)n3cc(CN)nn3)CC2)nc(N2CCN(C(=O)C(CC(N)=O)n3cc(C(N)C(C)CC)nn3)CC2)n1 (stereo not given) | 0.73
Cn1c(=O)c2c(nc(C=Cc3cccc(Cl)c3)n2C)n(C)c1=O | 0.67
Cc1ccc(F)c(C2=CC(=O)CC(c3ccc(F)cc3)C2)c1 (stereo not given) | 0.71

The final 7 records of the part above are carried over, then new ones follow:
SMILES | E coli growth
CCOC1OC(C(=O)N2CCN(C)CC2)=CC(c2ccc(Br)cc2)C1CCCO (stereo not given) | 0.66
CCC(C)C(C(=O)N1CCN(C(=O)OC(C)(C)C)CC1)n1cc(C(CC(C)C)NC(=O)OC(C)(C)C)nn1 (stereo not given) | 0.7
COC(=O)C1CC1C(NC(=O)c1ccc[nH]1)c1ccccc1 (stereo not given) | 0.67
CC1OC(OC2C(O)C(OCCc3ccc(O)c(O)c3)OC(CO)C2OC(=O)C=Cc2ccc(O)c(O)c2)C(O)C(O)C1O (stereo not given) | 0.68
C#CCOCCOCCOCCNc1nc(N2CCN(C(=O)C(CCCCN)n3cc(CN)nn3)CC2)nc(N2CCN(C(=O)C(CC(N)=O)n3cc(C(N)C(C)CC)nn3)CC2)n1 (stereo not given) | 0.73
Cn1c(=O)c2c(nc(C=Cc3cccc(Cl)c3)n2C)n(C)c1=O | 0.67
Cc1ccc(F)c(C2=CC(=O)CC(c3ccc(F)cc3)C2)c1 (stereo not given) | 0.71
COC(=O)C1C2CC3c4[nH]c5cc(OC)ccc5c4CCN3CC2CC(OC(=O)C=Cc2cc(OC)c(OC)c(OC)c2)C1OC (stereo not given) | 0.72
CN(CC=CC#CC(C)(C)C)Cc1cccc2ccccc12 | 0.68
C[C@]12CCC(=O)C=C1CCC1C2C(O)C[C@@]2(C)C1CC[C@]2(O)C(=O)COC(=O)CCC(=O)O (stereo not given in full) | 0.67&0.72
c1ccc(CC2CNCCN2CC2(c3ccccc3)CC2)cc1 (stereo not given) | 0.67
Cc1ccccc1CN1C(=O)C2Cc3c([nH]c4ccccc34)C(C)(C)N2C1=O (stereo not given) | 0.68&0.67
CCCCCC(=O)Nc1cccc(C2=NOC3(C2)CC(C(N)=O)N(C(=O)CC)C3)c1 (stereo not given) | 0.72
CCCCC1COCCS(=O)(=O)N1Cc1ccc(C)cc1 (stereo not given) | 0.67
COC(=O)[C@@]12CCCCN1C(c1ccc(-c3cc(C(C)=O)cs3)cc1)C1C(=O)N(C)C(=O)C12 (stereo not given in full) | 0.72
O=C(NCc1nc2ccccc2[nH]1)C1=CC(C2CC2)CC(OCCCCO)O1 (stereo not given) | 0.69
Cn1cc(C=C(C(=O)O)C(C(=O)O)=C2CCCCC2)c2ccccc21 | 0.72
Cc1ccc(S(=O)(=O)Nc2ccc3c(c2)CC(=O)N(C(C)CO)CC(C)C(CN(C)S(=O)(=O)c2ccccc2)O3)cc1 (stereo not given) | 0.73
CC(C)CC(NC(=O)c1nc[nH]c1C(=O)NC(CC(C)C)C(=O)OC(C)(C)C)C(=O)OCc1ccccc1 (stereo not given) | 0.73
COC(=O)C(CC(C)C)N(Cc1ccccc1)S(=O)(=O)N(Cc1ccc(OC)cc1)C(CC(C)C)C(=O)OC (stereo not given) | 0.72
CCOC1OC(C(=O)N2CCN(Cc3ccccc3)CC2)=CC(c2ccccc2)C1CCCO (stereo not given) | 0.71&0.68
CCn1c(O)c(C=NNC(=O)c2ccncc2)c(=O)n(CC)c1=S | 0.68
C#CCOCCOCCOCCNc1nc(N2CCOCC2)nc(N2CCN(C(=O)C(CCC(=O)O)n3cc(C(N)C(C)CC)nn3)CC2)n1 (stereo not given) | 0.72
CC=C(C)C(=O)Nc1cccc(C2=NOC3(C2)CC(C(N)=O)N(C(=O)CC#N)C3)c1 (stereo not given) | 0.66
C=C1CCN(C(C)C(=O)NCCCCCC)S(=O)(=O)c2ccccc21 (stereo not given) | 0.63
CC(C)(C)OC(=O)CNC(=O)c1[nH]cnc1C(=O)NC(Cc1ccccc1)C(=O)OCc1ccccc1 (stereo not given) | 0.73

Pulled one by one from above:
SMILES | E coli growth
CC(N)=C(C#N)C(=O)COC(=O)c1cc(-c2cccc3ccccc23)nc2ccccc12 | 0.68
Cc1noc(C)c1NC(=O)Nc1ccc2c(c1)C(=O)N(C(C)CO)CC(C)C(CN(C)C(=O)Nc1ccc3c(c1)OCO3)O2 (stereo not given) | 0.65
CC(C)C=C1CCCCC1N(C)C(=O)NC(C)C (stereo not given) | 0.7
C#CCOCCOCCOCCNc1nc(N2CCN(C(=O)C(CCCCN)n3cc(CN)nn3)CC2)nc(N2CCN(C(=O)C(CC(N)=O)n3cc(C(N)C(C)CC)nn3)CC2)n1 (stereo not given) | 0.73
COC(=O)C(CC(C)C)N(Cc1ccccc1)S(=O)(=O)N(Cc1ccc(OC)cc1)C(CC(C)C)C(=O)OC (stereo not given) | 0.72
CCC1=C2CCC3C(=O)N(c4ccccc4)C(=O)C3C2[C@@]2(C)C(=NCC3CC3)OC(=O)N2C1=O (stereo not given in full) | 0.66
CC1CN(C(C)CO)C(=O)c2cccc(NC(=O)C3CCCCC3)c2OC1CN(C)Cc1ccncc1 (stereo not given) | 0.69
